GALR2 agonist: agonists of human galanin receptor 2 (GALR2). GALR2-expressing cells, agonist activation read-out. activation, %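 (tested at 5 µM)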. 0.48% of 140,000 active;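 active = above mean plus 3 SD of all compounds, about 5% in these data, not always enough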;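 also: 0% = vehicle buffer wells and 100% = reference agonist at full effect; tested in CHO reporter cells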
INS promoter inh: TRM-6 insulin promoter activity inhibition. inhibition, % at 2 µM. TRM-6 cells (human fetal islet line), insulin promoter-eGFP reporter, imaging; reporter expression induced with tamoxifen. 0.9% of 130,000 active. AID 1273;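 active = inhibition above the mean plus 3 SD, with well images judged a real hit on visual review, cut at about 60% in these data, passing the limit was not always enough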
PKD1 kinase inh: PKD1 (human) kinase inhibition; Q15139; inhibition, %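 (about 10 µM by stock and volumes)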; 0.056% of 200,000 active; PKD1 kinase fluorescence polarization assay; AID 797;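 active = inhibition of 50% or more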;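 also: controls were vehicle for no effect and a reference inhibitor for full effect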
Target sequence (Q15139 whole entry, looked up): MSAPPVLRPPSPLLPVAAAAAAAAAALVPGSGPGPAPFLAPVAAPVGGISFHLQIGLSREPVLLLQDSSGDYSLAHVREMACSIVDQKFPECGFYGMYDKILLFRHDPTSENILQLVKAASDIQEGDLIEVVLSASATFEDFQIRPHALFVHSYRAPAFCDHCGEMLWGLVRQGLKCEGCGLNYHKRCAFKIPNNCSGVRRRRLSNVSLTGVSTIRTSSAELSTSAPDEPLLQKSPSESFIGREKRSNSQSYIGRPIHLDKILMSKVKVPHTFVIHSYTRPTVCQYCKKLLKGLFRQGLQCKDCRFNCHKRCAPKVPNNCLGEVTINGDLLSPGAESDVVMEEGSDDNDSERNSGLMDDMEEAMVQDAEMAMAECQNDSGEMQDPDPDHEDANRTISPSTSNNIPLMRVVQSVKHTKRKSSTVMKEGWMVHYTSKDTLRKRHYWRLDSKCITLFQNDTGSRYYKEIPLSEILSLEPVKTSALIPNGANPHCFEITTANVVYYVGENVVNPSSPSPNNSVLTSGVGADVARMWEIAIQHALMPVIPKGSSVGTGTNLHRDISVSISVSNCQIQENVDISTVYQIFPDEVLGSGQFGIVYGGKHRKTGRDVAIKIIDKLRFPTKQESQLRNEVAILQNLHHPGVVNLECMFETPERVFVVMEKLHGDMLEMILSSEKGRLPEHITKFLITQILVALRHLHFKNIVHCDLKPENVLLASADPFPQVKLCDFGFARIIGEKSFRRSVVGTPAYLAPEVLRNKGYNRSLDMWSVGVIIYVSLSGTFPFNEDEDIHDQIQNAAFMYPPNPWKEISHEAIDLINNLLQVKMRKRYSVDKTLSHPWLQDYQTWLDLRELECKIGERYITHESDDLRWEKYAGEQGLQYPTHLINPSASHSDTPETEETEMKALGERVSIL
HSV augment: HSV replication enhancement; HSV replication augmentation in cells, fold increase; maximum fold increase; 0.005% of 220,000 active; AID 1956;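 active = peak rise of 1.5-fold or more in the series; tested in PC3 cells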;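 also: first round at 10 µM; read as green reporter fluorescence; hits show the peak of a series up to 25 µM; 1 = signal of infected wells without compound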
RGS16-Gao: modulates binding between human RGS16 and Galphao. O15492+P09471. 0.38% of 220,000 active. binding response (% of control), % at 10 µM. bead-based flow cytometry RGS16-Galphao binding, fluorescence; actives lie on both sides;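 active = below 25% or above 175%, edge rows of some plates excepted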;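 also: Galphao activated by GDP with aluminum fluoride before binding; 100% = wells without compound and 0% = beads without RGS; some results beyond the cut were filed as inactive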
INS promoter inh cell count: second read-out of INS promoter inh, no call of its own (marks repeat the call); normalized cell count, %; measured here: cell count, toxicity; reference of the scale not given here;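 cells exposed to compound for 48 h; stained nuclei by imaging scaled within each plate; lower means fewer cells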
HSV augment primary fold: further read-out of HSV augment, marked with its call; fold increase; compound at 10 µM; measured here: primary screen fold increase 10 uM; tested in PC3 cells;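 GFP signal in the first replicate; 1 = infected wells without compound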
Active calls of the source: *; i = inactive; nt = no result given. Rows are unselected; 1.3% or so of the library scored in one or more.

The line under a structure holds: GALR2 agonist | INS promoter inh | INS promoter inh cell count | PKD1 kinase inh | HSV augment | HSV augment primary fold | RGS16-Gao
- O=C(O)CSCC(=O)Nc1ccc(C(=O)O)cc1
  -1.1 | -3 | 107 | -4 | i | 0.96 | 97
- CC1Cc2ccccc2N1S(=O)(=O)c1cnc(Cl)c(Cl)c1 (centres undefined)
  nt | nt | nt | nt | i | 0.72 | 103
- CCc1ccc(N2CC(C(=O)N/N=C/c3cc([N+](=O)[O-])ccc3O)CC2=O)cc1 (centres undefined)
  nt | 20 | 104 | -1 | i | 1 | 100
- FC(F)(F)c1ccccc1NC(=S)NC1CCN(Cc2ccccc2)CC1
  nt | nt | nt | 0 | i | 0.98 | 106
- CN(Cc1ccccc1)CC(O)COc1ccc(CNCCc2ccncc2)cc1 (centres undefined)
  nt | nt | nt | -13 | i | 0.98 | 145
- COc1ccc(C(NC(=O)CNC(C)=O)C(=O)Nc2ccc(C(C)C)cc2)cc1 (centres undefined)
  -0.1 | 2 | 37 | 5 | i | 0.89 | 97
- Cc1ccc2cc(/C=C(\C#N)C(N)=O)c(N3CCCCC3)nc2c1
  0.0 | 53 | 231 | -2 | i | 0.91 | 104
- COc1ccccc1N/C(N)=N/c1nc(CSc2ccc(C)cc2)cc(=O)[nH]1
  0.4 | -24 | 67 | -16 | i | 1.1 | 111
- CC(C)CC(=O)Nc1nnn(C)n1
  1.5 | 44 | 102 | 2 | i | 0.79 | 98
- CCOC(=O)c1sc2nc(C)nc(Nc3ccc(OC)c(OC)c3)c2c1C
  nt | 64 | 166 | -2 | i | 0.8 | 96
- CCOC(=O)C1CCC(CN(Cc2ccccc2C)S(=O)(=O)c2ccc([N+](=O)[O-])cc2)CC1 (centres undefined)
  -2.1 | 21 | 123 | 0 | i | 0.97 | 110
- CCCN(CCC)CCCNC(=O)CC1Nc2ccccc2NC1=O (centres undefined)
  -1.6 | nt | nt | -2 | i | 0.88 | 88
- CSc1ccccc1-c1n[nH]c(=S)o1
  nt | -44 | 108 | 1 | i | 0.97 | 103
- CCCNC(=O)c1c[nH]c2ccc(S(=O)(=O)N(C)c3ccc(OCC)cc3)cc2c1=O
  -0.5 | nt | nt | -9 | i | 0.82 | 105
- CCC(C)NC(=O)c1nc2c(nnn2Cc2ccccc2Cl)c(=O)[nH]1 (centres undefined)
  nt | -20 | 158 | 5 | i | 0.94 | 105

Later entries:
The line under a structure holds: GALR2 agonist | INS promoter inh | INS promoter inh cell count | PKD1 kinase inh | HSV augment | HSV augment primary fold | RGS16-Gao
- CCOc1ccc(N=Nc2c(=O)[nH]n3c(=O)cc(C)[nH]c23)cc1
  -1.4 | 11 | 96 | 0 | i | 0.96 | 104
- CC(C)(C)c1nc2c(Br)cc(Br)cc2c(=O)o1
  -0.1 | -80 | 85 | -5 | i | 1 | 99
- CC(=O)NC1=NN(C(C)=O)C(c2cccs2)S1 (centres undefined)
  -0.3 | 24 | 100 | 0 | i | 0.79 | 90
- CCC(=O)Nc1ccccc1Sc1ncnc2scc(-c3ccccc3)c12
  0.4 | -83 | 98 | 0 | i | 0.89 | 93
- CN1CCN(c2nc(-c3ccccc3)ncc2S(=O)(=O)c2ccccc2)CC1
  nt | 0 | 75 | -2 | i | 0.94 | 102
- Cc1ccc(CSCC(=O)N2CCN(Cc3ccc4c(c3)OCO4)CC2)cc1
  -1.5 | 20 | 145 | -8 | i | 0.9 | 98
- CC(C)CC(=O)N(c1ccc(F)cc1)C1C=CS(=O)(=O)C1 (centres undefined)
  0.1 | nt | nt | -2 | i | 0.93 | 75
- Cc1ccc(C(=O)Nc2nc(=O)n(C(=O)c3ccccc3Cl)s2)cc1
  -1.8 | -84 | 176 | -7 | i | 1 | 94
- CCc1cccc2c(C#N)cn(CC(=O)NCCOC)c12
  -1.1 | nt | nt | -2 | i | 1.1 | 102
- Cn1nnc2cc(C(=O)NCCC3=CCCCC3)ccc21
  -2.3 | 41 | 165 | -12 | i | 0.67 | 99
- Cc1cc(NC(=O)CN2C(=O)NC3(CCCCCC3)C2=O)no1
  nt | nt | nt | nt | i | 0.97 | 100
- O=C(CN1C(=O)C2C3CC(C(Br)C3Br)C2C1=O)OCC(=O)c1cccc([N+](=O)[O-])c1 (centres undefined)
  nt | nt | nt | 6 | i | 0.92 | 98
- Cc1cccc2c(=O)cc(C)n(CC(=O)N3CCCCC3)c12
  -2.4 | 7 | 139 | -23 | i | 0.87 | 99
- CCCC(=O)Nc1nnc(CC(=O)N2CCCC2)s1
  -2.9 | 42 | 74 | -1 | i | 1 | 92
- Cc1ccc(S(=O)(=O)Nc2ccccc2C(=O)OC(C)C(=O)Nc2ccc3ccccc3c2)cc1[N+](=O)[O-] (centres undefined)
  -0.5 | 50 | 134 | -8 | i | 0.97 | 101

Look-ups from the entries so far.
CCc1cccc2c(C#N)cn(CC(=O)NCCOC)c12 in GALR2 agonist reads -1.1
Cc1ccc(CSCC(=O)N2CCN(Cc3ccc4c(c3)OCO4)CC2)cc1 in GALR2 agonist reads -1.5
Cc1ccc(C(=O)Nc2nc(=O)n(C(=O)c3ccccc3Cl)s2)cc1 in PKD1 kinase inh reads -7
CC(C)(C)c1nc2c(Br)cc(Br)cc2c(=O)o1 in RGS16-Gao reads 99
CN1CCN(c2nc(-c3ccccc3)ncc2S(=O)(=O)c2ccccc2)CC1 in INS promoter inh reads 0

The list goes on:
The line under a structure holds: GALR2 agonist | INS promoter inh | INS promoter inh cell count | PKD1 kinase inh | HSV augment | HSV augment primary fold | RGS16-Gao
- O=c1c2ccccc2nc2n1C(CBr)CS2 (centres undefined)
  nt | nt | nt | 7 | i | 1.1 | 103
- Cc1ccc(S(=O)(=O)NC2=NCN(CCc3ccccc3)CN2)cc1
  -0.2 | -14 | 133 | 6 | i | 0.93 | 101
- O=C(Cc1ccccc1)N1CCN(S(=O)(=O)c2cccc([N+](=O)[O-])c2)CC1
  nt | nt | nt | 13 | i | 1.2 | 102
- COc1cc(/C=N/NC(=O)c2cc(C3CC3)[nH]n2)ccc1O
  nt | nt | nt | nt | i | 0.97 | 105
- O=[N+]([O-])c1ccc(Nc2nc(Cl)nc(NCCO)n2)cc1
  nt | nt | nt | -2 | i | 0.84 | 104
- O=C(NCC(c1cccnc1)N1CCN(c2ccccc2F)CC1)C1CCCCC1 (centres undefined)
  -0.7 | -14 | 57 | 3 | i | 1 | 102
- O=C1CC(c2ccc(S(=O)(=O)NCc3ccncc3)cc2)CN1 (centres undefined)
  -2.8 | nt | nt | 0 | i | 0.97 | 98
- O=C(c1ccc(-c2ccccc2)cc1)c1ccc([N+](=O)[O-])cc1
  nt | nt | nt | nt | i | 1.4 | 100
- O=C(Cc1ccccc1)NCC(=O)N/N=C/c1cccnc1
  nt | nt | nt | nt | i | 0.91 | 104
- COc1ccc(-c2cc(C(=O)Nc3c(C)n(C)n(-c4ccccc4)c3=O)no2)cc1OC
  nt | -17 | 135 | -2 | i | 0.96 | 101
- O=C(NCCS(=O)CCNC(=O)C(F)(F)F)C(F)(F)F
  -5.6 | nt | nt | -4 | i | 0.94 | 113
- O=C(NNc1cc(N2CCOCC2)nc(N2CCOCC2)n1)c1ccc([N+](=O)[O-])cc1
  nt | nt | nt | -9 | i | 1 | 106
- c1ccc(-c2nnsc2-c2nc3ccccc3[nH]2)cc1
  nt | nt | nt | -8 | i | 0.83 | 99
- CCN(C(=O)CN1CCN(Cc2ccccc2)CC1)c1c(N)n(Cc2ccccc2)c(=O)[nH]c1=O
  nt | nt | nt | -7 | i | 0.95 | 100
- Cc1ccc(N2C(=O)CC(C3CCCO3)C2=O)cc1 (centres undefined)
  -3.6 | -30 | 84 | -2 | i | 1.2 | 113

Gathered by group: those above containing a cyano group
The line under a structure holds: GALR2 agonist | INS promoter inh | INS promoter inh cell count | PKD1 kinase inh | HSV augment | HSV augment primary fold | RGS16-Gao
- Cc1ccc2cc(/C=C(\C#N)C(N)=O)c(N3CCCCC3)nc2c1
  0.0 | 53 | 231 | -2 | i | 0.91 | 104
- CCc1cccc2c(C#N)cn(CC(=O)NCCOC)c12
  -1.1 | nt | nt | -2 | i | 1.1 | 102

Other records follow:
The line under a structure holds: GALR2 agonist | INS promoter inh | INS promoter inh cell count | PKD1 kinase inh | HSV augment | HSV augment primary fold | RGS16-Gao
- CCC(C)(C)NC(=O)CN(Cc1cccs1)C(=O)C(=O)Nc1ccc2c(c1)OCCO2
  -1.3 | nt | nt | -2 | i | 0.98 | 98
- C=CCNCCOc1c(C)cc(C)cc1Cl
  0.1 | -75 | 79 | -5 | i | 1 | 107
- O=C(/C=C/c1c[nH]c2ccccc12)c1cccc2ccccc12
  -1.1 | nt | nt | -5 | i | 1.1 | 98
- COc1ccc(C/C(C)=N/NC(=S)Nc2ccc(Cl)cc2)cc1
  nt | nt | nt | nt | i | 1 | 96
- O=C(CSc1nnnn1C1CCCC1)NCc1cccs1
  nt | nt | nt | -8 | i | 0.89 | 106
- Cc1ccc(C(=O)c2cc([N+](=O)[O-])ccc2N2CCCCC2)cc1C
  -0.1 | -81 | 4 | -11 | i | 0.7 | 155
- CC1CCCN(CCOc2ccc3ccccc3c2Br)C1 (centres undefined)
  nt | nt | nt | -1 | i | 0.72 | 100
- Cc1ccccc1N=C1SC(CC(=O)Nc2ccc3ccccc3c2)C(=O)N1Cc1ccccn1 (centres undefined)
  -0.3 | -28 | 99 | -2 | i | 0.73 | 105
- Cc1ccc(S(=O)(=O)N2CCCCC2)cc1NC(=O)CCOc1ccccc1
  -0.4 | nt | nt | -10 | i | 1.2 | 109
- CCCC(=O)Nc1ccc2c(c1)C(=O)NC2=O
  -2.1 | nt | nt | -9 | i | 1 | 114
- Cc1cccc(C)c1C(OCCN(C)C)C1CCCCC1 (centres undefined)
  -0.8 | 4 | 112 | 2 | i | 0.66 | 111
- Cc1ccc(S(=O)(=O)C2C(=O)N(C)C3(C)CC2c2ccccc2O3)cc1 (centres undefined)
  -1.6 | 23 | 101 | -2 | i | 1.1 | 102
- CCCOC1CCCN(C(=O)CCc2nnc(CCCCc3ccccc3)o2)C1 (centres undefined)
  nt | nt | nt | -4 | i | 0.93 | 100
- Cc1c(N2C(=O)C3C4C=CC(C5CC45)C3C2=O)c(=O)n(-c2ccccc2)n1C (centres undefined)
  nt | nt | nt | nt | i | 1 | 91
- O=[N+]([O-])c1ccc(SCc2ccco2)cc1N1CCOCC1
  nt | nt | nt | -5 | i | 0.93 | 96

Later entries.
The line under a structure holds: GALR2 agonist | INS promoter inh | INS promoter inh cell count | PKD1 kinase inh | HSV augment | HSV augment primary fold | RGS16-Gao
- O=C(CN(c1ccc(Br)cc1)S(=O)(=O)c1ccc(Cl)c([N+](=O)[O-])c1)NCCc1ccccc1
  nt | nt | nt | 3 | i | 0.97 | 104
- CCCc1cc(C(=O)NNC(=S)NCc2ccccc2)cs1
  -0.9 | 23 | 106 | 0 | i | 1.3 | 106
- CN(C)CCCNCCCNC(=O)/C(=N\O)c1ccccc1
  nt | nt | nt | nt | i | 0.82 | 91
- Cc1cc(C(=O)NCc2cccs2)n(-c2ccccc2)n1
  -0.7 | nt | nt | -8 | i | 0.94 | 106
- O=C1CCCN1c1nccs1
  nt | 36 | 160 | 11 | i | 0.99 | 106
- CC1(C)Cc2nc3oc4c(SCC(N)=O)ncnc4c3cc2CO1
  nt | nt | nt | nt | i | 0.86 | 98
- Cc1c(Cl)cccc1N(CC(=O)O)S(C)(=O)=O
  -1.4 | -281 | 92 | 13 | i | 1 | 91
- COc1cc(OC)cc(C(=O)Nn2cc(C(=O)N3CCN(C)CC3)c3ccccc3c2=O)c1
  -2.0 | -13 | 112 | 12 | i | 0.93 | 113
- FC(F)(F)c1cc(-c2cccs2)nc2cc(-c3cccs3)nn12
  nt | nt | nt | nt | i | 1 | 103
- CC(C)(C)c1nnc2sc(SCC(=O)c3cccs3)nn2c1=O
  -1.0 | 30 | 118 | 0 | i | 0.87 | 97
- O=C(NNC(=S)Nc1ccc(F)c(Cl)c1)C1CC1
  nt | nt | nt | -7 | i | 1.2 | 97
- Cc1nc2nc(C)c(CCC(=O)N3CCN(c4ccccn4)CC3)c(C)n2n1
  -1.5 | nt | nt | -11 | i | 0.98 | 102
- Cc1ccc(S(=O)(=O)N2CCC(C(=O)OCC(=O)N3CC(=O)Nc4ccccc43)CC2)cc1
  -1.5 | 15 | 86 | -9 | i | 0.93 | 97
- COc1ccc(-c2cnnc(N/N=C/c3c(C)nn(-c4ccccc4)c3Cl)n2)cc1
  -0.3 | nt | nt | 0 | i | 0.6 | 88
- COc1ccc(C2=NOC(C(=O)N3CCN(c4ccccc4OC)CC3)C2)cc1 (centres undefined)
  -2.1 | nt | nt | -6 | i | 0.92 | 102
- COc1ccc(OCCCC(=O)NC(C)c2ccccc2)cc1 (centres undefined)
  -1.1 | 27 | 139 | -2 | i | 0.97 | 98
- O=C(Nc1ccccc1C(=O)N1CCCC1)C1COc2ccccc2O1 (centres undefined)
  nt | 8 | 132 | 66* | i | 0.91 | 105
- CCC(CC)C(=O)N1c2ccc(F)cc2CCC1C (centres undefined)
  -0.1 | nt | nt | -4 | i | 0.92 | 111
